# From PubChem BioAssay
# NOMO-1 viab = STK33 inhibitor candidate reducing NOMO-1 cell viability. NOMO-1 AML viability, CellTiter-Glo luminescence, 72 h. inhibition, % (test concentration not listed). 37,000 compounds, 7.5% hits;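 active = most replicates above 80%; inconclusive = exactly half above 80%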;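 also: wells of about 30 µL received 25 nL stock; 0% = median of vehicle wells and 100% = reference inhibitor level; the first replicate is given; inactives centre near 10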
# * hit, by the source's call; u = inconclusive. Some of the compounds tested. The share of hits here may be higher or lower than overall.
SMILES | NOMO-1 viab
C[C@H]1CN([C@@H](C)CO)C(=O)Cc2cc(NC(=O)CCCCCC(=O)Nc3ccccc3N)ccc2O[C@@H]1CN(C)Cc1ccc(C(F)(F)F)cc1 | 105.9*
C[C@@H]1CN([C@@H](C)CO)C(=O)Cc2cc(NS(=O)(=O)c3cccs3)ccc2O[C@@H]1CN(C)Cc1ccc(C(=O)Nc2ccccc2N)cc1 | 89.6*
C[C@H](CO)N1C[C@H](C)[C@H](CN(C)S(=O)(=O)c2ccc(F)cc2)Oc2ccc(NC(=O)Nc3cccc4ccccc34)cc2CC1=O | 35.6
CCc1cccc(C)c1NC(=O)CN(C)S(=O)(=O)c1ccc(Br)cc1 | -3.6
CC/C=C\C/C=C\C/C=C\CCCCCCCCCCCC(=O)O | -0.2
Cc1ccc(N=Cc2cc3ccccc3nc2Cl)cc1Cl | 113.9*
C[C@@H]1CN([C@@H](C)CO)C(=O)c2cccc(NS(=O)(=O)c3cccs3)c2O[C@@H]1CN(C)S(=O)(=O)c1ccc(Cl)cc1 | 59.1
C[C@H]1CN([C@@H](C)CO)C(=O)Cc2cc(NC(=O)Nc3ccc(F)cc3)ccc2O[C@H]1CN(C)Cc1ccc(C(F)(F)F)cc1 | 126.0*
Cc1nc(SCC(=O)O)[nH]c(=O)c1Oc1ccccc1 | 0.8
C[C@@H]1CN([C@@H](C)CO)C(=O)c2cccc(NC(=O)C3CCOCC3)c2O[C@@H]1CN(C)CC1CCCCC1 | 3.2

SMILES | NOMO-1 viab
O=c1[nH]c(=O)n(Cc2ccco2)c2c1C(C(F)(F)F)(C(F)(F)F)N=C(C1CCCCC1)N2 | -6.5
Cc1ccc(S(=O)(=O)N(C)CC(=O)Nc2cccc(F)c2)cc1 | 6.5
CC(C)NC(=O)N(C)C[C@H]1Oc2ccc(NC(=O)Nc3ccc(F)cc3)cc2CC(=O)N([C@@H](C)CO)C[C@H]1C | 18.8
COc1ccc(NC(=O)Nc2ccc3c(c2)C(=O)N([C@H](C)CO)C[C@H](C)[C@H](CN(C)C(=O)NC2CCCCC2)O3)cc1 | 10.5
CCSC1=N/C(=C\c2ccc(C)s2)C(=O)S1 | 51.3
CCOc1ccc2nc(SCC(=O)Nc3ccc(C)cc3C)[nH]c2c1 | u
C[C@@H]1CN([C@@H](C)CO)C(=O)c2cc(NC(=O)CCCCCC(=O)Nc3ccccc3N)ccc2O[C@@H]1CN(C)C(=O)Nc1ccccc1 | 5.1
Cc1c(Cl)cccc1NC(=O)CN(c1ccccc1)S(C)(=O)=O | 34.3
C[C@@H]1CN([C@H](C)CO)C(=O)c2cc(NS(=O)(=O)c3cccs3)ccc2O[C@H]1CN(C)CC1CC1 | 16.0
O=C(Nc1ccc(S(=O)(=O)Nc2nccs2)cc1)C1c2ccccc2Oc2ccccc21 | -8.2

SMILES | NOMO-1 viab
Cc1cc(N(CC(=O)Nc2ccc(F)c(F)c2)S(C)(=O)=O)ccc1Br | 30.4
C[C@@H]1CN([C@@H](C)CO)C(=O)c2cccc(NC(=O)C3CCCCC3)c2O[C@H]1CN(C)C(=O)Nc1ccc(C(F)(F)F)cc1 | 9.9
COc1ccc(S(=O)(=O)N(C)C[C@H]2Oc3ccc(NC(=O)NC4CCCCC4)cc3C(=O)N([C@@H](C)CO)C[C@H]2C)cc1 | 7.6
C[C@]12CC[C@H](O)CC1=CCC1C2CC[C@@]2(C)C1CC[C@@H]2C(=O)CO (stereo partly specified) | 5.1
COc1ccc(NC(=O)N(C)C[C@H]2Oc3ccc(NS(=O)(=O)c4ccc(C)cc4)cc3C(=O)N([C@H](C)CO)C[C@@H]2C)cc1 | 6.6
C[C@@H]1CCCCO[C@@H](CN(C)C(=O)NC2CCCCC2)[C@@H](C)CN([C@H](C)CO)C(=O)c2cc(NC(=O)CCCCCC(=O)Nc3ccccc3N)ccc2O1 | 13.3
COc1ccc(C)cc1NC(=O)CSc1nc2ccccc2s1 | 15.3
O=C(CC1NCCNC1=O)Nc1ccc(Cl)cc1 (stereo unspecified) | -20.4
C[C@@H]1CN([C@H](C)CO)C(=O)Cc2cc(NC(=O)C3CC3)ccc2O[C@@H]1CN(C)S(C)(=O)=O | -10.3
COC(=O)[C@@]1(C)CC[C@]2(C(=O)O[C@@H]3O[C@H](CO)[C@@H](O)[C@H](O)[C@H]3O)CC[C@]3(C)C(=CCC4[C@@]5(C)C[C@H](O)[C@H](O[C@@H]6OC[C@@H](O)[C@H](O)[C@H]6O)[C@@](C)(CO)C5CC[C@]43C)[C@@H]2C1 (stereo partly specified) | -1.4

SMILES | NOMO-1 viab
COc1ccc(NC(=O)Cn2nc(C)c([N+](=O)[O-])c2C)c(OC)c1 | 31.2
CCCC1CCC(c2ccc(OC(=O)c3cccnc3)cc2)CC1 (stereo unspecified) | 54.5
C[C@@H]1CN([C@@H](C)CO)C(=O)c2cccc(NC(=O)c3ccc(-c4nccs4)cc3)c2O[C@@H]1CN(C)Cc1ccc(-c2ccccc2)cc1 | 56.7
O=C(O)CCCNS(=O)(=O)c1ccc(Br)s1 | 8.8
CNC[C@H]1Oc2c(NC(=O)NC(C)C)cccc2C(=O)N([C@H](C)CO)C[C@@H]1C | 2.2
Cc1ccc(S(=O)(=O)Nc2cccc3c2O[C@@H](CN(C)CC2CC2)[C@@H](C)CN([C@H](C)CO)C3=O)cc1 | -13.0
C[C@@H]1CN([C@H](C)CO)C(=O)c2cccc(NC(=O)Nc3ccc(C(F)(F)F)cc3)c2O[C@H]1CN(C)C(=O)Nc1ccccc1 | 93.3*
C[C@H]1CN([C@@H](C)CO)C(=O)c2cccc(NC(=O)Nc3ccc4c(c3)OCO4)c2O[C@@H]1CN(C)CC1CC1 | 10.1
C[C@H](CO)N1C[C@H](C)[C@H](CN(C)C(=O)Nc2ccc(F)cc2)Oc2ccc(NS(C)(=O)=O)cc2CC1=O | -6.4
COc1ccc(S(=O)(=O)Nc2ccc3c(c2)C(=O)N([C@H](C)CO)C[C@H](C)[C@@H](CN(C)C)O3)cc1 | 14.2

SMILES | NOMO-1 viab
Cc1noc(C)c1NC(=O)N(C)C[C@H]1Oc2ccc(NC(=O)Cn3cnnn3)cc2CC(=O)N([C@H](C)CO)C[C@H]1C | -8.6
COc1ccc(S(=O)(=O)Nc2ccc3c(c2)C(=O)N([C@@H](C)CO)C[C@H](C)[C@H](CN(C)C(=O)Nc2ccc(C(F)(F)F)cc2)O3)cc1 | 4.6
Cc1cc(C(=O)Nc2cccc3c2O[C@@H](CN(C)Cc2ccc(Oc4ccccc4)cc2)[C@H](C)CN([C@H](C)CO)C3=O)n(C)n1 | 89.3*
Cc1cc(C)c(C#N)c(SCCS(=O)(=O)c2nc3ccccc3s2)n1 | 128.2*
C[C@@H]1CN([C@H](C)CO)C(=O)c2cccc(NC(=O)c3nc4ccccc4s3)c2O[C@@H]1CN(C)Cc1ccc(-c2ccccc2)cc1 | 38.9
COc1ccc(S(=O)(=O)Nc2ccc3c(c2)C(=O)N([C@H](C)CO)C[C@H](C)[C@@H](CN(C)S(=O)(=O)c2ccc(OC)cc2)O3)cc1 | -0.4
CCOC(=O)c1ccc(N=Cc2ccc(Cl)cc2)cc1 | 13.3
O=S(=O)(NC1CCCCC1)c1cccc(-c2nnc(-c3ccccc3)o2)c1 | -10.5
Cc1cccc(NC(=O)CSc2nc(N)c(C#N)c(-c3ccc(F)cc3)c2C#N)c1 | u
O=c1[nH]c2ccccc2c2ccccc12 | -0.1

# Copied from the list:
# COc1ccc(S(=O)(=O)Nc2ccc3c(c2)C(=O)N([C@@H](C)CO)C[C@H](C)[C@H](CN(C)C(=O)Nc2ccc(C(F)(F)F)cc2)O3)cc1 in NOMO-1 viab shows 4.6
# O=c1[nH]c2ccccc2c2ccccc12 in NOMO-1 viab shows -0.1
# Cc1noc(C)c1NC(=O)N(C)C[C@H]1Oc2ccc(NC(=O)Cn3cnnn3)cc2CC(=O)N([C@H](C)CO)C[C@H]1C in NOMO-1 viab shows -8.6
# Cc1cc(C(=O)Nc2cccc3c2O[C@@H](CN(C)Cc2ccc(Oc4ccccc4)cc2)[C@H](C)CN([C@H](C)CO)C3=O)n(C)n1 in NOMO-1 viab shows 89.3*

# Later entries:
SMILES | NOMO-1 viab
C[C@@H]1CN([C@H](C)CO)C(=O)c2cc(NC(=O)CCC(F)(F)F)ccc2O[C@H]1CN(C)S(=O)(=O)c1cccs1 | 11.0
COc1ccc(NC(=O)Nc2ccc3c(c2)C(=O)N([C@@H](C)CO)C[C@@H](C)[C@@H](CN(C)S(=O)(=O)c2ccc(F)cc2)O3)cc1 | 41.6
CCC(=O)Nc1sc2c(c1C(=O)N1CCCCC1)CCCCC2 | -12.9
C[C@@H]1CCCCO[C@H](CN(C)C(=O)Nc2ccc(C(F)(F)F)cc2)[C@@H](C)CN([C@H](C)CO)C(=O)c2cc(N(C)C)ccc2O1 | 43.0
CCc1ccc(-n2c(C)nnc2SCC(=O)Nc2ccc(OC)cc2)cc1 | -9.3
CC(C)NC(=O)N(C)C[C@H]1Oc2c(NC(=O)Nc3ccc(F)cc3)cccc2C(=O)N([C@H](C)CO)C[C@H]1C | -12.8
C[C@H]1CN([C@@H](C)CO)C(=O)c2cc(NS(=O)(=O)c3ccc(F)cc3)ccc2O[C@H]1CN(C)Cc1ccc(C(=O)Nc2ccccc2N)cc1 | u
C[C@@H]1CN([C@H](C)CO)C(=O)c2cccc(NS(=O)(=O)c3ccc(Cl)cc3)c2O[C@H]1CN(C)C | -14.6
C[C@@H]1CCCCO[C@@H](CN(C)C(=O)Cc2ccccc2)[C@@H](C)CN([C@H](C)CO)C(=O)c2cc(N(C)C)ccc2O1 | 19.6
C[C@@H]1CN([C@@H](C)CO)C(=O)Cc2cc(NC(=O)C3CC3)ccc2O[C@@H]1CN(C)S(C)(=O)=O | -3.6

SMILES | NOMO-1 viab
Cc1ccc(N(CC(N)=O)S(=O)(=O)c2ccccc2)cc1 | 19.6
C[C@@H]1CN([C@@H](C)CO)C(=O)c2cc(NS(=O)(=O)c3ccc(Cl)cc3)ccc2O[C@H]1CN(C)Cc1ccc(C(=O)O)cc1 | 10.6
C[C@H]1CN([C@@H](C)CO)C(=O)c2cccc(NC(=O)NC3CCCCC3)c2O[C@@H]1CN(C)C(=O)NC1CCCCC1 | 16.7
COc1ccc(NC(=O)CC(C(=O)O)N2CCOCC2)cc1 (stereo unspecified) | 11.5
COc1ccc(NC(=O)Nc2ccc3c(c2)C(=O)N([C@H](C)CO)C[C@H](C)[C@@H](CN(C)CC2CCCCC2)OCCCC[C@@H](C)O3)cc1 | 34.5
C[C@@H]1CN([C@@H](C)CO)C(=O)c2cccc(NC(=O)C3CCCCC3)c2O[C@H]1CN(C)CC1CC1 | 70.4
C[C@@H]1CN([C@H](C)CO)C(=O)Cc2cc(NS(C)(=O)=O)ccc2O[C@H]1CN(C)S(=O)(=O)c1cccs1 | -3.9
Cc1cc(Cl)ccc1NC(=O)CCCN1C(=O)c2ccccc2C1=O | -23.6
CCOc1ccc(NC(=O)Cn2nc([N+](=O)[O-])cc2C)cc1 | -5.4
C[C@@H]1CCCCO[C@@H](CN(C)C(=O)Nc2ccccc2)[C@@H](C)CN([C@H](C)CO)C(=O)c2cc(NC(=O)CCCCCC(=O)Nc3ccccc3N)ccc2O1 | 37.9

SMILES | NOMO-1 viab
O=C(Nc1sc2c(c1C(=O)NCC1CCCO1)CCCC2)c1ccc(Cl)cc1Cl (stereo unspecified) | 27.6
Cc1noc(C)c1S(=O)(=O)Nc1ccc2c(c1)CC(=O)N([C@H](C)CO)C[C@@H](C)[C@H](CN(C)Cc1ccc(Cl)c(Cl)c1)O2 | 97.5*
C[C@H]1CN([C@@H](C)CO)C(=O)c2cccc(NS(C)(=O)=O)c2O[C@@H]1CN(C)Cc1ccc(C(=O)O)cc1 | 6.3
Cc1ccc(C(=O)Nc2ccccc2C(=O)N2CCN(c3ccccc3)CC2)cc1S(=O)(=O)N1CCCCC1 | 3.7
COc1ccc(NC(=O)N(C)C[C@H]2Oc3ccc(NS(=O)(=O)c4cn(C)cn4)cc3C(=O)N([C@H](C)CO)C[C@H]2C)cc1 | 12.4
C[C@H](CO)N1C[C@H](C)[C@H](CN(C)CC2CC2)Oc2c(NC(=O)c3ccncc3)cccc2C1=O | 5.7
Cc1ccc(S(=O)(=O)Nc2cccc3c2O[C@H](CN(C)C(=O)Nc2ccccc2)[C@@H](C)CN([C@H](C)CO)C3=O)cc1 | 37.9
Cn1c(=O)c2c(ncn2CC(O)CNc2ccc(Br)cc2)n(C)c1=O (stereo unspecified) | 17.9
C[C@@H]1CN([C@H](C)CO)C(=O)c2cccc(NS(=O)(=O)c3cccs3)c2O[C@@H]1CN(C)Cc1ccc(-c2ccccc2)cc1 | 16.7
C[C@H](CO)N1C[C@H](C)[C@H](CN(C)S(C)(=O)=O)Oc2c(NC(=O)c3cnccn3)cccc2C1=O | 1.3

# Reprinted from the part before: 2 entries; new compounds follow.
SMILES | NOMO-1 viab
C[C@@H]1CN([C@H](C)CO)C(=O)c2cccc(NS(=O)(=O)c3cccs3)c2O[C@@H]1CN(C)Cc1ccc(-c2ccccc2)cc1 | 16.7
C[C@H](CO)N1C[C@H](C)[C@H](CN(C)S(C)(=O)=O)Oc2c(NC(=O)c3cnccn3)cccc2C1=O | 1.3
C[C@H](CO)N1C[C@H](C)[C@@H](CN(C)C(=O)Nc2ccc3c(c2)OCO3)Oc2c(NC(=O)Nc3ccc(C(F)(F)F)cc3)cccc2C1=O | u
CCc1cccc(C)c1NC(=O)CNS(=O)(=O)c1ccc(Cl)cc1 | -8.2
COC(=O)c1ccccc1NC(=O)CSc1nc(-c2ccccc2)cc(=O)[nH]1 | -2.9
COc1ccc(-c2nn(-c3ccccc3)cc2C2NC(=O)NC(C)=C2C(=O)OCc2ccccc2)cc1 (stereo unspecified) | 20.1
C[C@@H]1CN([C@H](C)CO)C(=O)c2cccc(NC(=O)Nc3ccc(C(F)(F)F)cc3)c2O[C@H]1CN(C)CC1CC1 | 84.4*
O=c1cc(CSc2nnnn2-c2ccccc2)[nH]c(=S)[nH]1 | 33.9
Cc1noc(C)c1S(=O)(=O)N(C)C[C@@H]1Oc2c(NC(=O)c3nc4ccccc4s3)cccc2C(=O)N([C@H](C)CO)C[C@@H]1C | 16.3
C[C@@H]1CN([C@H](C)CO)C(=O)Cc2cc(NC(=O)c3ccncc3)ccc2O[C@@H]1CN(C)S(=O)(=O)c1ccc(Cl)cc1 | -24.3
C[C@H](CO)N1C[C@H](C)[C@H](CN(C)C(=O)Nc2ccccc2)Oc2c(NS(=O)(=O)c3ccc(F)cc3)cccc2C1=O | 7.5
